Screening data: PubChem BioAssay, National Center for Advancing Translational Sciences (NCATS)
VDR inhibitor: vitamin D3 receptor (human) inhibition. VDR-SRC2-3 peptide fluorescence polarization, 2 h. Potency, µM, without a hit: max response, negative = inhibition, hits mostly inhibitors. P11473. 400,000 compounds, 0.93% hits; active means well fitted inhibition curve with a large enough effect; inconclusive means small, poorly fitted or top-dose-only effect, or another doubt; inactive means no such curve, though single readings can be large or run the other way; further: series mostly up to about 120 µM
Target sequence (P11473 whole entry, looked up): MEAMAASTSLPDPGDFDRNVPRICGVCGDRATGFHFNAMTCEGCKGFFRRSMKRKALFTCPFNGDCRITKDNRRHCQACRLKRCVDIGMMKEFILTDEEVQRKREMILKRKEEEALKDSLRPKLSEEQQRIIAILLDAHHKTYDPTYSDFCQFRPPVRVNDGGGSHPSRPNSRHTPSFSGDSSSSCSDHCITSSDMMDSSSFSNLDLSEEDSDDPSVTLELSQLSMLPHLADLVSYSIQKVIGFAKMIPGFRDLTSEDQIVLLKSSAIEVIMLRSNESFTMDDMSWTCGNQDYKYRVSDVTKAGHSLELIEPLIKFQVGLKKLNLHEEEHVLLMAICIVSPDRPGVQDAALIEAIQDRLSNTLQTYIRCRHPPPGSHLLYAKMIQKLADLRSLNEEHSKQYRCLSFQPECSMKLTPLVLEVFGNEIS
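Reagent solutions, kept cold and dark, are dispensed first; compounds are then pinned in at 23 nl, plates briefly spun, and incubated 2 h at ambient temperature. Inhibition of VDR–SRC2-3 peptide binding is read by fluorescence polarization.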
* marks the source's active call; other numbers are inactive results; u = inconclusive; & = joins results of further samples. On the % scale 0 is the no-effect control and ±100 the full control effect; potency means the concentration at half of the fitted maximal effect.

The first six entries (preview)
Structure | VDR inhibitor
COc1ccc(CN(Cc2cccnc2)C(=S)NCCc2ccccc2)cc1OC | -8.2%
Cc1ccccc1COC(=O)CNC(=O)c1sc2ccccc2c1Cl | -3.7%
CCCC(C(=O)NCc1ccco1)N(CC1CCCO1)C(=O)CNS(=O)(=O)c1ccc(F)cc1 (centres undefined) | -6.4%
COc1ccc(Cc2nc3ccc(C(=O)N4CCCC4)cc3o2)cc1OC | -4.5%
CCN(CC)S(=O)(=O)c1ccc(C)c(NC(=S)N2CCN(c3ccccn3)CC2)c1 | -0.6%
Cc1cc(C)c(NC(=O)CS(=O)CC(=O)NCC2CCCO2)c(C)c1 (centres undefined) | 5.9%

This part in full, previewed entries included:
Structure | VDR inhibitor
COc1ccc(CN(Cc2cccnc2)C(=S)NCCc2ccccc2)cc1OC | -8.2%
Cc1ccccc1COC(=O)CNC(=O)c1sc2ccccc2c1Cl | -3.7%
CCCC(C(=O)NCc1ccco1)N(CC1CCCO1)C(=O)CNS(=O)(=O)c1ccc(F)cc1 (centres undefined) | -6.4%
COc1ccc(Cc2nc3ccc(C(=O)N4CCCC4)cc3o2)cc1OC | -4.5%
CCN(CC)S(=O)(=O)c1ccc(C)c(NC(=S)N2CCN(c3ccccn3)CC2)c1 | -0.6%
Cc1cc(C)c(NC(=O)CS(=O)CC(=O)NCC2CCCO2)c(C)c1 (centres undefined) | 5.9%
N#CC1=C(N)NC(SCc2ccccc2)=C(C#N)C12CCCCC2 | 3.1%
COc1ccc(OCCn2c(NC(=O)c3ccc(OC)cc3)nc3ccccc32)cc1 | -11.0%
CC(=O)Oc1ccc(-c2cc3ccccc3oc2=O)cc1 | -14.5%
COc1ccc(/C=C(\C#N)C(=O)OCC(=O)NCc2ccccc2Cl)cc1 | -6.3%
COc1ccc(CNC(=O)C2CCN(C(=O)c3ccc(-c4ccccc4)cc3)CC2)cc1 | -4.8%
CCc1cc(C(=O)NCC(c2cccs2)N2CCOCC2)sc1C (centres undefined) | -21.4%
COc1ccc2c(c1)Cc1sc(NC(=O)c3ccccc3C)nc1-2 | 25.1µM*
CC(NC(=O)C1CCC1)c1ccc2c(c1)OCO2 (centres undefined) | 12.2%
COc1ccc(C(=O)c2cn[nH]c2-c2ccc(C)cc2O)cc1 | 0.3%
CCOc1ccc(N2CC(C(=O)NCc3ccc(F)cc3)CC2=O)cc1 (centres undefined) | 0.2%
COc1cc(Sc2ccc(C)cc2)c(OC)cc1N | -14.0%
O=C1CN(C(=O)COC(=O)c2ccc([N+](=O)[O-])s2)c2ccccc2N1 | -20.1%
Cc1ccc(O)c(-c2cc(C(=O)Nc3ccc(S(=O)(=O)N4CC(C)OC(C)C4)cc3)[nH]n2)c1 (centres undefined) | 2.9%
COC(=O)c1ccc(N)c(CS(=O)(=O)c2ccc(Cl)cc2)c1 | 11.6%
CN(C)C1(CNCC(O)c2ccccc2)CCCCC1 (centres undefined) | 12.8%
C=CCSC1=N/C(=C\c2ccc(C)o2)C(=O)S1 | -2.1%
Cc1nn(-c2cccc(Cl)c2)nc1C(=O)O | -8.7%
O=C1COc2ccc(C(=O)CSc3nnc(Cc4ccccc4)o3)cc2N1 | 6.0%
COc1ccc2ccccc2c1CNc1nnnn1C | -7.8%
N#CCC(=O)Nc1ccc(C(=O)OCC(=O)NC2CCCc3ccccc32)cc1 (centres undefined) | 2.0%
O=C(NCCSc1ncc(-c2ccc(F)cc2)[nH]1)c1ccc2c(c1)OCO2 | -2.2%
Cn1c(=O)[nH]c(=O)c2c1nc(NCCO)n2CCOc1ccccc1 | -1.6%
CN1CCN(C2CCN(Cc3ccc(O)c4ncccc34)CC2)CC1 | -29.0%
CNC(=O)c1ccsc1NC(=O)C1CCN(S(=O)(=O)c2cccs2)CC1 | -5.8%
COc1ccc(NC(=O)Nc2ncn(Cc3cccc(C(F)(F)F)c3)n2)cc1OC | 5.0%
CC(CC(=O)NCC1CCCO1)c1ccccc1 (centres undefined) | -19.1%
CCOC(=O)C(C)Oc1ncnc2cccc(F)c12 (centres undefined) | -19.3%
COc1ccc(CCNC(=O)C2CC(=O)N(c3ccc(C)cc3)C2)cc1OC (centres undefined) | -4.3%
CN1CCN(NC(=O)c2ccc(Cl)cc2Cl)CC1 | 13.6%
Cc1ccc(C(=O)Nc2cccc(C(F)(F)F)c2)cc1NC(=O)c1[nH]cnc1C(N)=O | 4.2%
Cc1c(N/C(=N/S(=O)(=O)c2ccc(F)cc2)c2ccccc2)c(=O)n(-c2ccccc2)n1C | -23.3%
Cc1nnc(SCC(=O)N(C)C2CCS(=O)(=O)C2)n1Cc1ccccc1 (centres undefined) | -18.7%
CCOC(=O)c1[nH]c2ccc(OC)cc2c1NC(=O)c1nonc1C | -2.9%
Cc1cc(Br)ccc1NC(=O)C(C)c1ccc([N+](=O)[O-])cc1 (centres undefined) | -5.9%
O=C(Cc1ccc(NC(=O)C2CCN(C(=O)C3CC3)CC2)cc1)Nc1ccc(C(=O)N2CCOCC2)cc1 | 10.9%
O=C(NCCN1C(=O)S/C(=C\c2ccccc2Cl)C1=O)C1=COCCO1 | -0.6%
C=CCOc1ccc(CNc2nccs2)cc1 | 3.1%
COc1ccc(-c2cc3nc(C)c(CCC(=O)Nc4ccccc4C(C)=O)c(C)n3n2)c(OC)c1 | -15.0%
Cc1cc(C)c(S(=O)(=O)N2CCCCC2)c(C)c1N(C)S(=O)(=O)c1ccccc1 | -4.7%
COc1ccc(/C=C2/SC(=S)N(Cc3ccccc3)C2=O)cc1O | 12.8%
COc1ccccc1CNC(=O)CCC1N=C2c3ccccc3N=C(SCc3cccc(Cl)c3)N2C1=O (centres undefined) | -14.5%
OC(CNCC1COc2ccccc2O1)COCc1cccs1 (centres undefined) | 15.6%
O=C(Nc1ccc(NC(=O)C2CC2)nc1)c1ccccc1F | 1.1%
O=C(Nc1ccc2oc(-c3ccccc3)nc2c1)c1ccc2c(c1)OCCO2 | -15.0%

Other entries follow.
Structure | VDR inhibitor
Cc1ccc2[nH]c(=O)c(CN(CC3CCCO3)C(=O)c3ccncc3)cc2c1 (centres undefined) | -3.8%
CC(=O)OCCC(NS(=O)(=O)OCC(Cl)(Cl)Cl)c1ccccc1 (centres undefined) | 3.1%
COCCCNC(=S)NC(=O)c1ccc(C)cc1 | 4.3%
S=C(NCc1ccccc1)N1CCCCC1 | -1.8%
C[C@H]1NC(=O)NC1=O | -3.4%&2.1%
CCOc1cc(-c2ccc(OC(=O)c3ccc(C)cc3)c(OC)c2)cc(=O)c2c(C)oc(C)c12 | 3.9%
CCC(C)NC(=O)c1cnn2c1NC(c1ccc3c(c1)OCO3)CC2C(F)(F)F (centres undefined) | -0.1%
COc1ccc(NC(=O)C2CC(=O)n3cnnc3S2)cc1 (centres undefined) | -2.6%
CCOC(=O)c1c(-c2ccc(OC)cc2)csc1NC(=O)COc1ccc2c(C)cc(=O)oc2c1 | 7.5%
COc1ccc(N2CCN(C(=O)c3ccc4c(c3)CCN4S(=O)(=O)c3ccccc3)CC2)cc1 | -1.6%&3.2%
O=C(O)c1ccc2c(c1)N(Cc1cccc(F)c1)C(=O)CS2 | -2.3%
Cc1cc(C)cc(-n2c(=O)c3sccc3n(CC(=O)NCc3ccco3)c2=O)c1 | -5.3%
CC(C)(C)OC(=O)C[C@H]1C/C=C\C[C@H](CC(=O)N[C@H](CO)Cc2ccccc2)C(=O)N[C@@H](Cc2ccccc2)COC1=O | -3.7%
Cn1nnnc1Sc1ncnc2scc(-c3cc4ccccc4o3)c12 | u
COc1ccc(N2C(=O)CC(SCC(=O)O)C2=O)cc1 (centres undefined) | 12.6%
CCOC(=O)CSc1nc2c(sc3ccc([N+](=O)[O-])cc32)c(=O)n1Cc1ccco1 | -12.6%
O=C1CN(C(=O)CSc2nnc(C3CC3)n2-c2ccccc2)c2ccccc2N1 | -6.8%
CC1CCc2c(C(=O)Nc3ccc(N4CCOCC4)cc3)csc2C1 (centres undefined) | -3.8%
O=C(NCC(=O)N1CCc2ccccc2C1)c1ccc(Cl)cc1Cl | 9.0%
Cc1cc(C)c(NC(=O)CN(C)C(=O)CNC(=O)c2cccs2)c(C)c1 | 3.2%
Cc1ccc(CSc2oc(-c3ccco3)nc2S(=O)(=O)c2ccc(Cl)cc2)cc1 | -12.4%
COc1ccc2nc(C)c3c(c2c1)OC(C(C)(Cl)Br)C3 (centres undefined) | 3.8%
CCOc1cc(C(N)=O)cc(Cl)c1OCc1ccccc1 | 3.6%
Cc1ccc(/C=N/NC(=O)C2CCN(Cc3ccc(F)cc3Cl)CC2)o1 | -5.4%
O=[N+]([O-])c1ccc2cc[nH]c2c1 | 7.2%

(continued)
canonical_smiles,VDR inhibitor
O=C(Nc1nccs1)[C@@H]1CC=C[C@@H]2CCN(Cc3ccccc3)C(=O)[C@@H]21,-24.5%
O=C(N/N=C/c1ccc(O)cc1)/C(=C/c1ccc([N+](=O)[O-])cc1)NC(=O)c1ccccc1,-2.1%
O=c1c2ccccc2nc2c3ccccc3c(NCc3ccccn3)nn12,-5.0%
CC(C)C(=O)Nc1ccc(S(=O)(=O)Nc2nccc(/C=C/c3ccccc3)n2)cc1,-5.5%
N=c1c2ccccc2nnn1-c1ccccc1[N+](=O)[O-],-16.6%
CC(Oc1ccc2cc(-c3ccccc3)c(=O)oc2c1)C(=O)NCC1CCC(C(=O)O)CC1 (centres undefined),u
Cc1nn(-c2ccccc2)c(-n2cccc2)c1C(=O)NCCc1ccc(Cl)cc1,8.4%
Clc1ccc(N2N=C(c3cccs3)CC2c2ccco2)cc1 (centres undefined),6.1%
CCCCN(CC)S(=O)(=O)c1ccc(C(=O)Nc2nnc(-c3cccs3)o2)cc1,-5.9%
CCNc1nc(C)c(CN(C(C)=O)c2ccccc2)nc1C#N,-5.8%
CCCn1c(N)c(N(CCOC)C(=O)c2cc(C)cc(C)c2)c(=O)[nH]c1=O,-2.8%
O=C(OCc1ccccc1)c1cn(-c2ccccc2)nc1-c1ccncc1,4.1%
O=C1CC(c2nc3ccccc3n2CCCCOc2ccccc2)CN1c1ccccc1Cl (centres undefined),3.5%
COc1ccc(CCN2C(=O)N[C@@H](C(C)C)C2=O)cc1,-0.5%
CC(C)(C)C(=O)NC(=S)NNC(=O)c1sc2ccccc2c1Cl,-18.0%
CCC(C)Sc1ccc([C@H]2N[C@@](C)(C(=O)OC)[C@H]3C(=O)N(CC)C(=O)[C@@H]23)cc1 (some centres undefined),-0.2%
Cc1ccc(NC(=O)C2CCCN(S(=O)(=O)c3cccs3)C2)cc1 (centres undefined),-3.2%
COc1ccc(-n2nnc3c(=O)n(CC(=O)Nc4ccc5c(c4)OCCO5)cnc32)cc1OC,-14.8%
CCOC(=O)c1c(CN2CCN(Cc3ccccc3)CC2)n(C)c2cc(Br)c(OC)cc12,-2.4%
CC(=O)C1=C(O)C(=O)N(c2ccc(C)cc2)C1c1ccccn1 (centres undefined),11.0%
COc1ccc(-c2nc(C)c(CCNC(=O)c3cc(OC)c(OC)c(OC)c3)s2)cc1OC,7.2%
CCc1cc2c(N3CCN(c4ccccc4)CC3)ncnc2s1,3.2%
Cc1ccc(S(=O)(=O)N2CCC(C(=O)NCCCN3CCOCC3)CC2)cc1,-6.0%
Fc1ccccc1NC(=S)NCc1ccc2c(c1)OCO2,-0.9%
Cc1cccc(Oc2ncnc(N)c2[N+](=O)[O-])c1,-27.3%
O=C(NC(=S)NNC(=O)c1cccs1)c1ccco1,5.8%
O=C(Cn1cnc2ccccc2c1=O)NCc1ccc2c(c1)OCO2,5.8%
Cc1cc2c(OCC(O)CNC3CCCCC3)cccc2[nH]1 (centres undefined),8.1%
CCc1c(C(C)S(=O)(=O)c2ccc(C)cc2)[nH]c(=O)n1-c1ccc(C)cc1 (centres undefined),u
CCN(CC)C(=O)Oc1cc(COC)nc(-c2ccccc2)n1,1.1%

3 entries out of the list, ordered by heavy-atom count, lowest first:
canonical_smiles,VDR inhibitor
O=C(NC(=S)NNC(=O)c1cccs1)c1ccco1,5.8%
CC(=O)C1=C(O)C(=O)N(c2ccc(C)cc2)C1c1ccccn1 (centres undefined),11.0%
COc1ccc(-n2nnc3c(=O)n(CC(=O)Nc4ccc5c(c4)OCCO5)cnc32)cc1OC,-14.8%

(listing goes on)
canonical_smiles,VDR inhibitor
COc1cccc2c1cc1c(=O)n(CC(=O)N3CCN(c4ccccc4F)CC3)nc(C)n12,10.5%
O=C(COc1ccc(Cl)cc1Cl)Nc1cccnc1,3.5%
COc1ccc(Cl)cc1N=C1NC(=O)CC(C(=O)Nc2ccccc2C(F)(F)F)S1 (centres undefined),11.9%
COc1ccccc1CCNC(=O)C1CCC(=O)N(C2CC2)C1 (centres undefined),-0.7%
CC(C)Cn1c(=O)n(C)c(=O)c2[nH]cnc21,-22.1%&3.8%
O=C(NC1CCCCC1)c1ccc2c(c1)N(Cc1ccc(Cl)cc1)C(=O)c1ccccc1S2(=O)=O,-31.0%
N#CCCn1cc(C=C(C#N)C#N)c(-c2ccc(Cl)cc2)n1,u
Cc1cc(C)cc(N(CC(=O)N2CCCC2)S(C)(=O)=O)c1,-12.1%
COc1ccc(S(=O)(=O)N(CC(=O)Nc2cccnc2)c2ccc(Cl)cc2)cc1,-0.6%
N#Cc1nc(COc2ccccc2Cl)oc1NCCc1ccccc1,-0.6%
Cc1ccc(CNC(=O)[C@]2(C(F)(F)F)C[C@H](CCc3ccccc3)CCCO2)o1,u
COc1cccc(CN2CC34CC(c5ccc(C(C)=O)cc5)C(CC3S2(=O)=O)O4)c1 (centres undefined),-23.2%
Cc1cccc(N2CCN(S(=O)(=O)c3ccc4c(c3)NC(=O)C(C)S4)CC2)c1C (centres undefined),0.1%
O=C1NC(=Nc2cccc(O)c2)S/C1=C\c1cccnc1,16.6%
Cc1ccc(NC(=O)CN2CCOCC2)cc1,-6.0%

Single values from above.
VDR inhibitor with `COc1ccc(S(=O)(=O)N(CC(=O)Nc2cccnc2)c2ccc(Cl)cc2)cc1` → -0.6%
VDR inhibitor with `CCN(CC)C(=O)Oc1cc(COC)nc(-c2ccccc2)n1` → 1.1%
VDR inhibitor with `O=C(NCC(=O)N1CCc2ccccc2C1)c1ccc(Cl)cc1Cl` → 9.0%
VDR inhibitor with `C=CCSC1=N/C(=C\c2ccc(C)o2)C(=O)S1` → -2.1%

The list is partial, so the mix of outcomes need not match the whole.
